Source: PubChem BioAssay
CSC inhib: cancer stem cell inhibition; cancer stem cell-like cells viability, luminescence; inhibition, % at 7.5 µM; actives 1.1% (n = 300,000);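 active = mean at 75% or more and at least half the replicates too; tested in HMLE shEcad cells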;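 note: 0% = median of negative and 100% = median of positive control wells; the first replicate is given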
Env fusion inh: blocks HIV Env-driven cell-cell fusion | HeLa-JRFL Env/CEM21 cell fusion, luciferase | inhibition, % at 12.3 µM | actives 1.1% (n = 360,000) | AID 651610;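 active = mean replicate inhibition score of at least 50 and every replicate individually at or above 50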;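 note: 0% = plate neutral controls and 100% = maraviroc near 300 nM; one replicate is shown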
eIF4H FP inh: inhibitors of RNA binding by human eIF4H. Q15056. eIF4H fluorescence polarization binding assay. inhibition, % at 35 µM. actives 0.94% (n = 290,000). AID 2012;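 active = 50% or more with normal probe brightness, or confirmed in later tests; about a fifth of its hits are not listed in these tables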;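 note: calls also rest on retests at 20 µM and on dose response follow-up; 0% = protein and probe with vehicle and 100% = probe without protein; strong numbers were not always called active; many hits fall short of the cut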
PABP FP inh: blocks human PABP binding to poly(A) RNA; actives 1% (n = 290,000); fluorescence polarization; inhibition, % at 35 µM; AID 2014;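 active = 50% or more with normal probe brightness, or confirmed in later tests; about a fifth of its hits are not listed in these tables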;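 note: calls also rest on retests at 20 µM and on dose response follow-up; controls were probe without protein and protein plus probe with vehicle; some compounds called inactive have numbers as strong as hits; many hits fall short of the cut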
MT1-MMP act inh: inhibitors of human MT1-MMP activation; actives 0.061% (n = 360,000); P50281; HT1080 RFP-PRO-GFP cells, GFP/RFP ratio fluorescence, overnight; percent of plate control window, DMSO zero; AID 651647; GFP/RFP ratio change, % at 20 µM;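 active = GFP/RFP ratio change of at least 30% with cell ATP level not reduced by more than half and red fluorescence within 50% of control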; note: strong numbers were not always called active
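Assay system: HT1080 RFP-PRO-GFP cells. Benchmarks: DMSO vehicle wells and RFP-L50D-GFP reporter cell wells. Times: overnight cell settling, then overnight compound exposure, 37 °C, 5% CO2. Compound: 20 µM single dose, 1% DMSO. Read-out basis: GFP/RFP fluorescence ratio.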
Rce1 inhib: yeast Ras-converting enzyme inhibition; Q03530; yeast membranes, quenched prenylated peptide cleavage fluorescence; calls only; actives 0.27% (n = 290,000);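 active = fall in fluorescence gain of 50% or more versus controls, with final raw signal at or below 3038400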;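 note: plate controls were neutral control wells for no effect and wells lacking membranes for full effect; tested at 10 µM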
Target sequence (Q03530 whole entry, looked up): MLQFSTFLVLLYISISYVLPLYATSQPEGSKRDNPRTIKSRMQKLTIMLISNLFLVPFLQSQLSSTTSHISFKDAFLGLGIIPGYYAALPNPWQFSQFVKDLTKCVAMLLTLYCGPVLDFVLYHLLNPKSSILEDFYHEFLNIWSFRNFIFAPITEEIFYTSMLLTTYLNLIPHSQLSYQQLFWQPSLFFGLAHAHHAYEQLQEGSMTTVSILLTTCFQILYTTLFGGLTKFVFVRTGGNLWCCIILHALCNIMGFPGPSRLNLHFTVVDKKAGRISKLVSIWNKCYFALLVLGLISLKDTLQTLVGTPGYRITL
UUG fidelity: modulators of start codon recognition fidelity in yeast. S. cerevisiae UUG-firefly luciferase reporter, luminescence/redox ratio. activity score, % at 18.7 µM. actives 0.13% (n = 350,000);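 active = replicate mean at a twofold rise or more, about +100% in these data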;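 note: firefly luciferase made from a UUG start codon reports start codon fidelity; reporter light over untreated wells divided by growth signal over untreated wells; some hits fall short of that in this replicate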
MT1-MMP act inh RFP: recorded beside MT1-MMP act inh, whose call it bears; RFP signal change, %; measured here: RFP expression control read;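 0 = vehicle wells; hits needed this value within 50% of zero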
An asterisk follows results filed as active; i = inactive; nt = not tested or not shown; & = joins results of further samples; [ ] = another dose, or the depositor's remark. A portion of the library, so the mix of outcomes need not match the whole.

no.	canonical_smiles	CSC inhib	Env fusion inh	eIF4H FP inh	PABP FP inh	MT1-MMP act inh	MT1-MMP act inh RFP	Rce1 inhib	UUG fidelity
1	O=C(CSc1ccc(Cl)cc1)N1CCC(c2nc3ccccc3s2)CC1	50	nt	-8	-4	-5	-28	i	-5
2	NC(=S)Cc1nc2n(n1)Cc1ccccc1-2	8	-24	-9	-14	14	5	i	-12
3	Cc1cc(Cl)cc2sc(NC(=O)c3ccco3)nc12	0	nt	2	8	3	0	i	-17
4	COc1ccccc1N1CCN(Cc2ccc(-c3ccccc3[N+](=O)[O-])o2)CC1	0	34	18	11	0	0	i	0
5	COc1cc(N=c2oc3c(C)ncc(CO)c3cc2C(N)=O)cc(OC)c1OC	4	2	-2	8	3	0	i	-5
6	CC(=O)NCCc1ccc(C(=O)COC(=O)c2ccco2)cc1	-13	-12	nt	nt	-4	-6	nt	-15
7	O=C(Nc1ccc(Br)cc1)c1ccc(CSC2=NCCS2)cc1	7	nt	-11	-1	-3	-20	i	-15
8	CCCNC(=O)C1(C)CCCN(C(=O)Cc2ccc(OC)c(OC)c2)C1 (stereo not drawn)	nt	8	nt	nt	3	7	nt	-1
9	N#CC1(Nc2cccc(Br)c2)C(=O)Nc2ccccc21 (stereo not drawn)	-7	-6	-17	12	-3	-1	i	nt
10	COc1ccc(OCCSc2nnc3c(Cl)cc(Cl)cn23)cc1	-11	-3	0	3	4	7	i	nt
11	O=C(CSc1nnc(CNC(=O)c2cccs2)o1)Nc1cccc(F)c1	25	0	-7	5	-4	1	i	-5
12	CCC(C)n1cnc2c(c1=O)c1nc3ccccc3nc1n2-c1ccc2c(c1)OCCO2 (stereo not drawn)	-10	3	5	9	-2	2	nt	1
13	CC(OC(=O)Cn1c(C(F)(F)F)nc2ccccc21)C(N)=O (stereo not drawn)	-17	nt	1	-13	5	9	i	nt
14	O=C(Nc1cccc2ccccc12)/C(Cl)=C/c1ccccc1	nt	nt	-1	-11	-3	-4	i	-1
15	Cc1ccc(OCc2nnc(NC(=O)OCC(C)C)s2)c(C)c1	-14	nt	2	10	nt	nt	i	nt
16	Cc1ccc(-c2nnc(SCC(=O)NC3CCCC3)n2C)cc1	-4	2	-2	-3	1	4	i	-14
17	CCC1CCC(N2CCN(c3ccc([N+](=O)[O-])cc3)CC2)CC1 (stereo not drawn)	7	19	-5	3	6	0	i	-9
18	CCNC(=O)C1(C)CCN1Cc1cc(-c2ccccc2)n(C)n1 (stereo not drawn)	nt	3	nt	nt	-1	0	nt	3
19	CN(C)CCCn1cnc2c(c1=N)C(c1ccccc1)c1ccc3ccccc3c1O2 (stereo not drawn)	104*	-47	-12	26	1	-6	i	-7
20	CCC(=O)Nc1nc2ccc(NC(=O)c3cc(OC)c(OC)c(OC)c3)cc2s1	-2	16	1	-1	6	1	i	-10
21	Cc1cc(C)cc(NC(=O)Nc2cccc(S(N)(=O)=O)c2)c1	-8	-7	-13	8	1	0	i	-10
22	Cc1ccc(S(=O)(=O)N2CCN(C(=O)N(C)C)CC2)cc1	-16	6	-7	-5	-6	-5	i	nt
23	O=C(Nc1ccc2c(c1)OCO2)C1CCCN1C(=O)Nc1ccccc1F (stereo not drawn)	-1	nt	-1	6	3	1	i	nt
24	CCCCN1C(=O)C(=O)N(CC(=O)c2ccc3c(c2)OCO3)C1=O	4	-16	nt	nt	1	3	i	-16
25	C=CCNc1sc(C(=O)c2ccccc2)c(N)c1-c1nc2ccccc2s1	30	nt	26	26	2	3	i	-29
26	O=C(Nc1cc(Cl)ccc1N1CCOCC1)c1ccc(N2CCCCC2)c([N+](=O)[O-])c1	71	-55	nt	nt	-2	-3	i	-13
27	CCSc1cc(C)nc2c(-c3ccccc3)c(C)nn12	6	-33	-12	2	5	-2	i	-12
28	O=C(NCc1cccs1)Nc1ccc2c(c1)OCO2	1	-99	8	-2	0	-3	i	-24
29	CCOC(=O)CC(=O)CSc1nc2c(sc(=S)n2-c2ccccc2)c(=O)[nH]1	-4	-2	-9	6	1	4	i	-3
30	COc1cccc2cc(C(C)N(CCCN3CCOCC3)C(=S)Nc3c(C)cccc3C)oc12 (stereo not drawn)	-7	0	8	20	0	2	i	-25
31	Cc1nc2nc3c(cn2n1)C(=O)CCC3	-7	-24	9	15	-5	4	i	-11
32	CCOC(=O)C1=C(C)NC(=O)NC1c1ccc(N(CC)CC)cc1 (stereo not drawn)	-8	1	-9	-1	-3	0	i	3
33	CC(=O)c1c(O)c(C)c(O)c2c1OC1=Cc3c(c(C)nn3-c3ccccc3)C(=O)C12C (stereo not drawn)	nt	6	nt	nt	4	-3	nt	-18
34	Cc1ccc(C(=O)O)cc1NC(=O)C1CCN(S(=O)(=O)c2ccc3c(c2)OCCO3)CC1	-6	-6	nt	nt	3	3	nt	5
35	O=C(COc1ccc(Cl)cc1)NCc1nnc(SCC(=O)c2ccccc2)o1	-8	-24	-2	13	12	0	i	-16
36	COC(=O)C1=C(C(=O)OC)[C@@H]2Nc3ccccc3[C@@]23C[C@@H](C(=O)OC)N(C(=O)c2ccco2)C3=N1	-15	-48	nt	nt	-1	2	i	21
37	O=C(COc1ccc(Cl)cc1Br)Nc1ccccc1N1CCCC1	37	-3	nt	nt	-10	-10	i	nt
38	O=C(CN1CCN(C(=O)CNC(=O)c2ccc(N3CCCC3=O)cc2)CC1)Nc1ccccc1Cl	-4	12	nt	nt	-3	-2	nt	-4
39	COc1ccccc1C(=O)NCC(c1cccs1)N1CCc2ccccc21 (stereo not drawn)	-1	11	nt	nt	2	-2	i	-18
40	Cc1cc(C)nc(SCc2ccc(C(=O)N/N=C/c3ccncc3)cc2)n1	-2	-3	-8	-6	-2	3	nt	nt
41	COc1ccccc1Cc1c(C2CCCCC2)nc2ccc(Cl)cn12	nt	6	nt	nt	-2	-4	nt	-13
42	O=C(Nc1ccon1)c1ccc(S(=O)(=O)N2CCOCC2)cc1	-4	11	-10	-6	-1	1	i	nt
43	N#CC(=Cc1ccnc2ccccc12)c1ccccc1	nt	-12	nt	nt	11	-17	nt	-7
44	Cc1ccc(-n2c(SCC(=O)N3c4ccccc4Sc4ccccc43)nnc2-c2ccncc2)cc1	-2	9	13	25	-6	-6	i	-8
45	CCOC(=O)c1cc2ccc(OC)c(OC)c2c(=O)s1	-15	nt	-5	1	4	-2	i	nt
46	COCCN1CCn2c(nc3cc(NS(C)(=O)=O)ccc32)C1	-3	4	-10	-2	0	6	i	-5
47	CSc1ccc(C(=O)C2CCCN(S(=O)(=O)c3c(C)noc3C)C2)cc1 (stereo not drawn)	-2	8	-2	8	-2	-10	i	-18
48	O=C(O)c1ccc2nc(-c3ccco3)c(-c3ccco3)nc2c1	nt	2	98*	90*	-3	-1	i	-3
49	COc1ccc(S(=O)(=O)N(C)CC(=O)NC2CC2)cc1OC	-5	2	-3	4	-2	-1	i	-6
50	O=C(CN1C(=O)NC2(CCCC2)C1=O)OCc1c(F)cccc1Cl	-5	3	nt	nt	1	1	i	-5
51	Cc1ccccc1-n1c(=O)c2ccccc2n(CC(=O)NCc2ccco2)c1=O	-28	4	8	-11	-3	0	i	nt
52	CCO[C@@H]1OC(C(=O)NC2CC2)=C[C@H](c2ccc(C(F)(F)F)cc2)[C@H]1CCCO	5	-6[16.7 µM]	-1	7	1	3	i	-2&-8
53	O=C1N=C(N2CCCCC2)S/C1=C\c1ccncc1	-16	26	0	-13	-9	-7	i	nt
54	CN1CCN(C(=O)c2ccc3c(Cl)c4c(nc3c2)CCCC4)CC1	-2	-4	3	0	3	1	i	-22
55	Cc1ccc(S(=O)(=O)NCC(=O)NCC(=O)N2CCC(C)CC2)cc1	-15	10	-7	18	-2	-1	i	-12
56	COc1ccc(NC(=O)Nc2ccccc2F)cc1Cl	3	-55	-9	3	-1	-4	i	-12
57	CCOC(=O)C1CCN(C(=O)CNC(=O)OC(C)(C)C)CC1	12	nt	-1	-1	-3	1	i	-4
58	O=C(CCc1ccccc1)NC(NC(=S)Nc1ccc(Br)cc1)C(Cl)(Cl)Cl (stereo not drawn)	7	nt	9	3	5	0	i	-5
59	O=C(O)CCCNS(=O)(=O)c1cccc2nsnc12	-6	59	0	2	2	5	i	-10
60	Cc1ccc(N(C(=O)Cn2nnc(-c3ccc(C)o3)n2)C(C(=O)NC2CCCC2)c2ccncc2)cc1 (stereo not drawn)	nt	3	5	0	-3	-5	i	-19

Four entries from above, set out differently.
53) O=C1N=C(N2CCCCC2)S/C1=C\c1ccncc1
54) CN1CCN(C(=O)c2ccc3c(Cl)c4c(nc3c2)CCCC4)CC1
55) Cc1ccc(S(=O)(=O)NCC(=O)NCC(=O)N2CCC(C)CC2)cc1
56) COc1ccc(NC(=O)Nc2ccccc2F)cc1Cl
compound no.	53	54	55	56
CSC inhib	-16	-2	-15	3
Env fusion inh	26	-4	10	-55
eIF4H FP inh	0	3	-7	-9
PABP FP inh	-13	0	18	3
MT1-MMP act inh	-9	3	-2	-1
MT1-MMP act inh RFP	-7	1	-1	-4
Rce1 inhib	i	i	i	i
UUG fidelity	nt	-22	-12	-12

Continued.
no.	canonical_smiles	CSC inhib	Env fusion inh	eIF4H FP inh	PABP FP inh	MT1-MMP act inh	MT1-MMP act inh RFP	Rce1 inhib	UUG fidelity
61	CC12CCC(C(N)=O)(c3nc4ccccc4nc31)C2(C)C (stereo not drawn)	-7	nt	-6	-3	0	3	i	-11
62	Cc1c(Cl)cccc1NC(=O)CSc1nc(=O)n(CCCN2CCOCC2)c2c1CCCC2	nt	-23	nt	nt	-1	2	nt	-7
63	COC(=O)COc1cccc(NS(=O)(=O)c2ccc(NC(C)=O)cc2)c1	-5	nt	5	0	2	6	i	-4
64	O=C(NCCN1CCOCC1)C12CC3CC(C1)CC(c1ccccc1)(C3)C2	-1	-21	-8	1	1	1	i	nt
65	CC1=C(C(=O)OCC2CCCCC2)C(c2ccc(O)cc2)NC(=O)N1 (stereo not drawn)	-13	7	-8	-5	2	-5	i	-11
66	Cc1cc(C)n(CCC(=O)N2CCCC(Nc3ccc(F)cc3)C2)n1 (stereo not drawn)	-9	-94	-4	6	-2	0	i	4
67	CCn1c(=O)cc(OCC(=O)NC(C)c2ccc3c(c2)OCCO3)c2ccccc21 (stereo not drawn)	-1	-5	-6	-1	7	4	nt	4
68	COCCNCC(=O)Nc1ccc(OC(F)(F)F)cc1	-9	4	-6	2	-9	-4	i	-12
69	CCCN(CC1CC1)C(=O)Nc1ccccc1C	-11	nt	-1	-2	8	4	i	-1
70	O=C(N/N=C/c1cccc([N+](=O)[O-])c1)C1CC(=O)N(c2ccc(Cl)cc2)C1 (stereo not drawn)	11	nt	-2	0	7	-2	i	nt
71	Cc1nn(C(C)C(=O)Nc2ccc3c(c2)OCO3)c(C)c1[N+](=O)[O-] (stereo not drawn)	-2	-18	4	5	-3	-1	i	2
72	CC(NC(=O)C12CC3CC(CC(C3)C1)C2)C(=O)NN=Cc1ccc([N+](=O)[O-])o1 (stereo not drawn)	10	32	nt	nt	4	-8	nt	3
73	CCCOC(=O)/C(C(N)=NCc1ccccc1)=C(\O)OCCC	46	11	-8	3	-2	-7	i	0
74	CC(=O)c1ccc(N2CCN(C(=O)c3cc4c(s3)CCCC4)CC2)cc1	1	1	-2	-4	3	-11	i	nt
75	COc1ccc(C(=O)Nc2ccc(S(=O)(=O)NC(C)=O)cc2)cc1[N+](=O)[O-]	-8	-13	-8	-20	2	3	i	nt
76	O=C(NC1=NCCS1)c1cc(-c2cccnc2)nc2ccccc12	-9	15	-9	31	2	3	i	nt
77	Cn1c(=O)c2sc3c(c2n(CC(=O)Nc2ccccc2)c1=O)COC(C)(C)C3	-8	3	2	4	6	4	i	2
78	O=C(COC(=O)Cc1c(Cl)cccc1Cl)NCc1ccco1	-2	nt	nt	nt	-1	1	nt	-10
79	NC(=O)c1ccccc1N=Cc1cccnc1	-8	5	nt	nt	3	-1	i	nt
